Source: PubChem BioAssay
B2AR ag: activates human beta-2 adrenergic receptor causing internalization. P07550. Am2.2-beta2AR cells, FAP receptor internalization, flow cytometry; reference of the scale not given here. response, % (concentration not given with the values). 340,000 tested, 0.43% active;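 active = response above a set limit, near 3 SD of response in nonfluorescent compounds, cut at about 42% in these data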;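 note: stock transfer was 100 nL into about 11 µL; a reference agonist was the positive control; negative values mostly stem from fluorescent compounds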
T cruzi inh: T. cruzi replication inhibition | T. cruzi beta-gal in NIH3T3, luminescence, 90 h | inhibition, % (concentration not given with the values) | 300,000 tested, 1.4% active | AID 1885;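 active = mean inhibition across valid replicates above about 55%, limit read from the data; inconclusive = mean below that limit but half or more replicates reach it; inactive = mean below it, under half of replicates reach it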;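 note: signal also drops with host cell toxicity which is not excluded here; 0% = plate median of DMSO wells and 100% = zero luminescence signal; higher percent means less beta-gal luminescence so fewer parasites; stock transfer was 50 nL into about 50 µL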
Bfl-1 A1 inh: inhibitors of the anti-apoptotic protein A1, read as caspase activation. 330,000 tested, 0.066% active. MEF A1-2A-BIM cells, Caspase-Glo 3/7 luminescence, 3 h; percent of clofoctol response, vehicle zero. caspase activation, % (concentration not given with the values);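 active = over half of replicate activation scores above 10%, or exactly half above 10 with the replicate mean above 10; inconclusive = replicate mean below 10 yet half the replicates above 10; inactive = over half of replicates below 10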;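 note: wells of about 30 µL received 50 nL stock; many hits fall short of the cut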
RanGTP-Imp inh: disruptors of Ran-importin-beta complex formation – biochemical, FRET, CFP-Ran, YFP-importin-beta, homogeneous, primary screen; cell-free CFP-Ran/YFP-importin-beta FRET ratio; inhibition, % (test concentration not listed); 300,000 tested, 1.1% active; AID 2216;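 active = most replicates above 15%; inconclusive = exactly half above 15%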;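 note: 0% = DMSO wells and 100% = Ran loaded with GDP instead of GTP; wells of about 40 µL received 100 nL stock; the first replicate is given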
LANA-H2A inh: blocks KSHV LANA binding to histone H2A/H2B; cell-free LANA-H2A/H2B peptide, fluorescence polarization; inhibition, % (concentration not given with the values); 320,000 tested, 0.6% active; in the data active = inhibition mostly above about 10%, no sharp cut-off; inactive = mostly below about 6.7%;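 note: stock transfer was 7.5 nL into about 10 µL; 0% = median of vehicle wells and 100% = median of positive control wells; one replicate is shown; the record names a cut of 25% in any replicate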
Target sequence (Q9QR71 whole entry, looked up): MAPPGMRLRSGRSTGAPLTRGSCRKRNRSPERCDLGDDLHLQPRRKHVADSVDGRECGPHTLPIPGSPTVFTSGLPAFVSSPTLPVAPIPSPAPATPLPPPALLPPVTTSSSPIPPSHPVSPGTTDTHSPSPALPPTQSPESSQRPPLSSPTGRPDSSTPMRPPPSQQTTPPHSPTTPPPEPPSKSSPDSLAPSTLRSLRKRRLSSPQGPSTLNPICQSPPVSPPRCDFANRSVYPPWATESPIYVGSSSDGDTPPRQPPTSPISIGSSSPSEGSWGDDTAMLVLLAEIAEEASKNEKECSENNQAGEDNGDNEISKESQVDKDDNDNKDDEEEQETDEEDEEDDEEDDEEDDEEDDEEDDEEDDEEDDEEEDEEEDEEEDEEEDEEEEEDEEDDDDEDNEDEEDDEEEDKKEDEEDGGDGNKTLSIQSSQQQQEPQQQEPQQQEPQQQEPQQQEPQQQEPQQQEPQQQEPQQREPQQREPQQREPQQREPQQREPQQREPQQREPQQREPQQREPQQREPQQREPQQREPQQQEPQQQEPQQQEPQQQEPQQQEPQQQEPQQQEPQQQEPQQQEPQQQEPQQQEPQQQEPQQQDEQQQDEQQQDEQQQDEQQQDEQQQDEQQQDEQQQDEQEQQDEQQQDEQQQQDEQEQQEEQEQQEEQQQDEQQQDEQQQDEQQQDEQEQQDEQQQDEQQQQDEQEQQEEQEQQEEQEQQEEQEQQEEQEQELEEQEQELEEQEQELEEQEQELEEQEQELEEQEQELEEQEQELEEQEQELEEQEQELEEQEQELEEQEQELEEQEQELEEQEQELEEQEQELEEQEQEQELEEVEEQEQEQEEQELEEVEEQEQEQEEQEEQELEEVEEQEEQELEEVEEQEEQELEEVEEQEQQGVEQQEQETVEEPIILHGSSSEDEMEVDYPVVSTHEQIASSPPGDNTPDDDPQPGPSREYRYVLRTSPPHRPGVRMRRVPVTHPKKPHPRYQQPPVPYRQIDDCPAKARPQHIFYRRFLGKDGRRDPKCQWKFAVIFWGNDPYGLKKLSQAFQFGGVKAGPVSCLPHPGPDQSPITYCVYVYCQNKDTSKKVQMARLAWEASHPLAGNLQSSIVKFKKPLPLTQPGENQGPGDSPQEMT
Beta cell apopt: beta cell apoptosis inhibition | INS-1E cytokine-induced death, ATP luminescence, 48 h; percent of positive-control rescue, neutral wells zero | protection from apoptosis, % (no concentration beside the values) | 300,000 tested, 0.8% active | AID 435005;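 active = all replicates at 75% or more, or half of them and the mean; inconclusive = half reach 75% but not the mean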;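 note: 0% = cytokine-treated negative control wells and 100% = positive control rescue; higher means more ATP so stronger rescue from cytokine killing; wells of about 40 µL received 100 nL stock; the first replicate is given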
Calb FLC: affects C. albicans growth with fluconazole; AID 1979; C. albicans CaCi-2 (fluconazole-resistant clinical isolate) + fluconazole, Alamar Blue growth, 48 h; growth inhibition, % (no concentration beside the values); 300,000 tested, 0.57% active;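 active = most replicates above 75%; inconclusive = exactly half above 75%; inactive = most below 75%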;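 note: all wells also contain fluconazole at 8 µg/ml as a sub-toxic cotreatment; 0% = median of DMSO wells and 100% = median of geldanamycin control wells; wells of about 8 µL received 7.5 nL stock; the first replicate is given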
UCH37 inh: inhibitors of human deubiquitinating enzyme UCH37; Q9Y5K5; purified proteasome/UCH37, Ub-AMC cleavage fluorescence; inhibition, % (test concentration not listed); 330,000 tested, 0.33% active; AID 588478;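 active = mean of two replicates above 20%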;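 note: 0% = compound-free wells with enzyme and 100% = wells lacking proteasome; stock transfer was 100 nL into about 20 µL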
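system = Proteasome-associated human UCH37 deubiquitinase | amount = 0.15 nM proteasome as dispensed | medium = pH 7.4 Tris-HCl (50 mM) with ovalbumin, ATP-MgCl2, DTT | incubation = 30 min preincubation with enzyme, 25 min cleavage at room temperature | detection = AMC fluorescence 355/460 nm | read-out basis = percent inhibition | controls = no-proteasome and no-compound wells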
* hit, by the source's call; ? = inconclusive; · = no result given.

Below each compound – B2AR ag, T cruzi inh, Bfl-1 A1 inh, RanGTP-Imp inh, LANA-H2A inh, Beta cell apopt, Calb FLC, UCH37 inh
1. COC(=O)C1=C(C)N=C2SCCC(=O)N2C1c1ccc(OC(=O)c2ccco2)cc1 (stereo unspecified)
→ 8, -2, ·, ?, ·, ·, -6, 2.1
2. COc1ccc(-c2ccccc2)cc1NCc1ccc(OC)c(OC)c1
→ 9, 11, 0.0, -2.7, 8.9, 6, -3, -4.1
3. CC(C)(C)c1nnc2sc(SCC(=O)c3ccc4c(c3)OCCO4)nn2c1=O
→ -1, -12, 0.8, -0.1, ·, -9, 20, 7.4
4. Cc1cccc([C@@H]2[C@@H]3C(=O)N(Cc4ccccc4)C(=O)[C@@H]3[C@]3(Cc4ccc(Cl)cc4)C(=O)N(c4ccccc4)C(=O)N23)c1
→ 8, 12, -0.2, 0.1, -1.8, 10, -2, 4.5
5. CC(O)CNCc1ccccc1C(F)(F)F (stereo unspecified)
→ -5, -2, -0.9, 1.1, -1.2, -18, 1, -2.5
6. CCOC(=O)N1CCN(c2cc(NCCO)c([N+](=O)[O-])c3nonc23)CC1
→ 8, -8, 0.0, ?, -2.4, -3, -19, 5.5
7. Cc1nc2ccc(Br)cn2c1C(=O)N/N=C\c1ccc(C(C)C)cc1
→ 4, -14, -0.4, -0.4, 2.6, ·, 0, ·
8. O=C(CSc1nncs1)Nc1ccc(N2CCCCC2)cc1
→ -4, ·, -2.1, ·, 3.5, 6, ·, 3.0
9. O=C(CCCN1C(=O)/C(=C\c2ccccc2)SC1=S)N1CCOCC1
→ -6, ·, -8.4, ·, -2.6, -25, ·, 7.9
10. CCc1nc(SCC(=O)NCc2ccc(F)cc2)c2c(=O)n(C)c(=O)n(C)c2n1
→ 4, -4, 0.0, 4.2, 4.2, 7, -2, 0.3
11. COc1ccc(OC)c(S(=O)(=O)CC(=O)c2cc3ccc(OC)cc3oc2=O)c1
→ 23, -4, -0.3, -12, -2.9, -7, ?, -4.3
12. COCCNC(=O)c1cc(OC)c(OC)cc1[N+](=O)[O-]
→ 5, -8, -0.1, -0.9, -2.1, -4, -9, 6.2
13. Cc1cc(C)cc(C(=O)NCC(=O)NNC(=O)CSc2ccccc2F)c1
→ 6, ·, -0.1, ·, 2.2, -2, ·, 1.8
14. O=C(Cn1c(C(F)(F)F)nc2ccccc21)N=Nc1c(O)[nH]c2ccc(Br)cc12
→ -5, -16, ?, -6.5, -5.3, 42, -7, 3.1
15. Cc1nc(NC(=O)CSc2nnnn2Cc2ccccc2)sc1C
→ -4, 0, 0.8, -1.6, -0.5, -6, -3, 5.7

Next entries:
Below each compound – B2AR ag, T cruzi inh, Bfl-1 A1 inh, RanGTP-Imp inh, LANA-H2A inh, Beta cell apopt, Calb FLC, UCH37 inh
16. Cc1ccc(S(=O)(=O)Oc2ccc(/C=C(/NC(=O)c3ccccc3)C(=O)NC(C)C(=O)O)cc2)cc1 (stereo unspecified)
→ -3, -11, -0.1, 2.2, -2.0, -5, 26, 0.9
17. Nc1nonc1C(=O)NCCNC(=O)c1ccc(Cl)cc1
→ 1, 0, 1.4, -0.4, -4.7, ·, 2, 0.1
18. O=P(c1ccccc1)(c1ccccc1)c1cc(S(=O)(=O)O)ccc1O
→ -2, -16, 0.6, -3.4, -4.6, -2, -3, 0.3
19. CCOCCCNC(=O)C(NC(=O)c1ccc2c(c1)OCO2)c1ccccc1 (stereo unspecified)
→ 1, -6, 0.1, -5.4, 1.7, 2, 11, 2.2
20. CC(=O)c1c(C)[nH]c(C(=O)CSc2nnc(-c3ccc(Cl)cc3)n2CC2CCCO2)c1C (stereo unspecified)
→ -9, 7, 0.7, 4.3, 3.6, -11, -3, 2.6
21. CC1=CC2=NC(=O)CC(C)(C(=O)N(CC(=O)NC(C)(C)C)C3CCCC3)N2C=C1 (stereo unspecified)
→ 1, -20, 0.5, 3.1, 0.8, -4, 0, -27
22. CCC(C)n1c(SCC(=O)Nc2ccc3[nH]c(=O)[nH]c3c2)nc2ccccc2c1=O (stereo unspecified)
→ -3, -10, 1.2, 4.9, 3.5, ·, 0, 3.2
23. C=CCNC(=S)Nc1cc(Cl)ccc1OC
→ -3, -7, 1.4, 2.2, 0.9, 4, 14, 4.3
24. Cn1nnc2sc3c(c2c1=O)CCCC3
→ -10, -14, 0.2, 7.2, -0.3, -6, 24, 5.5
25. Cc1ccccc1C(=O)Nn1c(C)ccc1C
→ ·, -9, 0.1, 2.8, -2.1, -24, ?, ·
26. O=C(Cc1ccc(-n2cnnn2)cc1)NC12CC3CC(CC(C3)C1)C2
→ -11, 2, 1.2, 5.4, -0.1, 3, -8, -0.4
27. CCOc1ccc(NC(=O)CCSc2nnc(C)s2)cc1
→ 16, 6, -0.2, -0.9, 2.2, 1, -4, 4.2
28. O=C(CN1CCOCC1)N(c1ccccc1)c1ccc2ccccc2c1
→ 4, 36, 1.7, -4.4, -3.5, -4, 24, 4.4
29. COc1ccc(C(=O)NC(=S)N(Cc2ccccc2)Cc2ccccc2)cc1
→ -2, 52, 0.2, -0.7, 5.5, 21, 23, -1.7
30. O=c1[nH]nc(Cc2ncc(C(F)(F)F)cc2Cl)c2ccccc12
→ -6, -7, 0.0, 3.5, -5.4, 0, 2, 3.1

The results go on.
Below each compound – B2AR ag, T cruzi inh, Bfl-1 A1 inh, RanGTP-Imp inh, LANA-H2A inh, Beta cell apopt, Calb FLC, UCH37 inh
31. COc1ccc(OC)c(N(CC(=O)NC2CCCC2)S(=O)(=O)c2ccc(OC)c(OC)c2)c1
→ -1, 1, -0.3, 0.4, -1.8, ·, 17, 5.5
32. Cc1cc(/C=N/n2cnnc2)c(C)n1-c1ccc(C(=O)O)cc1
→ 11, -6, -1.0, 4.3, 2.1, -3, -9, ·
33. O=C(N/N=C/c1cn(-c2ccccc2)nc1-c1cc2ccccc2o1)c1cccnc1
→ 25, -2, -1.4, 8.1, 0.1, 20, 19, ·
34. O=C(Nc1sc2c(c1CN1CCOCC1)CCC2)c1ccc(F)cc1
→ 1, 17, 0.7, 0.4, -2.3, 7, 2, -8.4
35. Cc1cc(C)n(CCCNC(=O)c2ccc(S(=O)(=O)NCc3ccco3)cc2)n1
→ -1, -5, -0.5, 4.8, -1.6, -9, -2, 2.6
36. CC1=NNC(=O)C1CC(=O)N/N=C/c1sccc1C (stereo unspecified)
→ -2, -5, -0.8, 0.5, 9.2, -7, -10, ·
37. CSCCC(NC(=O)COc1ccccc1)C(=O)NC1CCC(C)CC1 (stereo unspecified)
→ -9, 7, -0.1, 0.0, 2.7, -2, 4, ·
38. C=CCN1C(=O)c2ccc(C(=O)NCC(c3ccccc3)N(C)C)cc2C1=O (stereo unspecified)
→ 3, -18, 0.2, 3.1, 3.9, -7, 14, 1.4
39. Cc1ccc(C(=O)NCC(=O)OCc2nnc(-c3ccccc3)o2)cc1
→ -8, 1, -0.7, 2.0, -19, ·, -7, -1.2
40. CCCNCc1cc(OC)c(OCC(=O)NCCc2ccccc2)cc1Br
→ -5, 10, -0.2, -1.0, 1.6, 5, -19, 1.9
41. O=C(CNC(=O)c1ccc(Br)o1)Nc1cccc(-c2cnc3ccccc3n2)c1
→ 15, 7, -0.2, 2.1, -5.4, 16, -18, -0.6
42. Cc1ccc(C(C)C)c(OCC(=O)NNC(=O)C(C(C)C)N2C(=O)c3ccccc3C2=O)c1 (stereo unspecified)
→ 3, 5, 0.5, ?, 0.3, -6, 6, -2.2
43. CC(C)(C)c1ccc(OCC(=O)NNC(=O)C2CCCO2)cc1 (stereo unspecified)
→ -11, -11, 1.5, -1.0, 1.5, -3, -8, 2.1
44. CCOC(=O)c1cnc(SC2CC(=O)N(c3ccc(OC)c(OC)c3)C2=O)nc1N (stereo unspecified)
→ -5, -5, 1.5, 5.2, 0.1, ·, 7, 0.5
45. CCOc1ccc(S(=O)(=O)N2CCCCC2)cc1NC(=O)Cc1ccccc1
→ 2, ·, -0.7, ·, -2.8, 12, ·, 1.3

(more compounds)
Below each compound – B2AR ag, T cruzi inh, Bfl-1 A1 inh, RanGTP-Imp inh, LANA-H2A inh, Beta cell apopt, Calb FLC, UCH37 inh
46. CC(=O)Oc1ccc([C@@H]2COc3c(ccc4c3C=CC(C)(C)O4)C2)c(OC(C)=O)c1
→ -3, 0, 0.1, 1.3, 5.4, -2, -3, -0.2
47. COC(=O)c1sccc1-c1ccc(/C=N/OC(=O)c2ccccc2)o1
→ 5, -1, -1.0, -2.8, -0.4, ·, 32, ·
48. CCOc1ccc(-n2c(O)cc(=O)[nH]c2=O)cc1
→ -7, -7, -0.2, -4.6, -11, ·, -7, 2.6
49. Cc1nn(-c2ccccc2)c(=O)c2ccccc12
→ -13, -8, -1.0, -2.5, -0.7, -4, -19, -0.1
50. COc1ccc(/C=C/C(=O)NCCCc2ccccc2)cc1
→ 0, 2, 0.1, -5.8, 2.4, -2, -18, ·
51. CCOC(=O)Cc1cc(-c2ccc(O)cc2)nc2ccc3ccccc3c12
→ 4, 33, 1.0, -3.0, 4.8, 0, -10, 0.8
52. O=C(Nc1nc2ccccc2[nH]1)c1ccc(Cl)c(S(=O)(=O)N2CCCC2)c1
→ 0, 3, -2.0, 1.9, -1.4, 20, 9, 1.9
53. Cc1ccc2cccc(SCC(=O)NCc3ccco3)c2n1
→ -1, -2, 0.5, -4.4, -3.7, -5, -7, -49
54. O=C(CN1C(=O)/C(=C\c2ccccc2Br)Oc2ccccc21)NCCCN1CCOCC1
→ 12, -5, 0.8, 2.3, 5.4, 7, -5, -203
55. Cc1ccc(Cn2c(C(C)Nc3nc(C)cs3)nc3cc(Cl)c(Cl)cc32)cc1 (stereo unspecified)
→ ·, -7, 0.5, -0.7, 0.6, -1, -4, 4.9
56. CC[C@]12c3[nH]c4ccccc4c3CCN1C(=O)C(CC(=O)NCCCn1ccnc1)C[C@@H]2C(=O)N1CCN(C(=O)c2ccco2)CC1 (stereo partly specified)
→ -1, ·, 0.7, ·, -150, -1, ·, 0.5
57. COc1cc(NC(=O)C2CCCN2S(=O)(=O)c2ccc3c(c2)CCC(=O)N3)cc(OC)c1 (stereo unspecified)
→ 3, ·, -0.9, ·, -2.7, 4, ·, 2.8
58. O=c1oc(-c2ccc([N+](=O)[O-])cc2)nc2ccccc12
→ 11, 22, -7.1, 7.7, -4.6, 6, 26, 1.5
59. Cc1ccc(C)c(NC(=S)N(C)CCc2ccccn2)c1
→ 3, 1, -0.1, 25*, -4.7, -5, 12, 2.8
60. CCC(Sc1nc(=O)cc(N)n1CCc1ccccc1)C(=O)Nc1cc(C)on1 (stereo unspecified)
→ -5, 10, 0.0, 0.9, 4.5, 1, 1, 3.7
61. C=CCC(=O)OCC(=O)Nc1ccc(Cl)cn1
→ -3, -16, -1.0, 2.0, 4.6, -3, -7, 0.5
62. CN(C)c1nc(Oc2ccc(=O)n(C)n2)nc(N2CCOCC2)n1
→ 0, -12, -0.5, 0.4, 5.9, -8, -7, 4.0
